# Assay outcomes (PubChem)
# HSV replic up: HSV replication enhancement. HSV replication augmentation in cells, fold increase. maximum fold increase. 220,000 tested, 0.005% active;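 active = peak rise of 1.5-fold or more in the series; inconclusive = self-fluorescent or not available for retest; tested in PC3 cells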;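 note: first round at 10 µM; read as green reporter fluorescence; hits show the peak of a series up to 25 µM; 1 = signal of infected wells without compound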
# PKD1 kinase inh: blocks activity of human protein kinase D1; Q15139; 200,000 tested, 0.056% active; AID 797; inhibition, %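 (about 10 µM by stock and volumes)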; PKD1 kinase fluorescence polarization assay;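 active = inhibition of 50% or more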;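 note: controls were vehicle for no effect and a reference inhibitor for full effect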
# Target sequence (Q15139 whole entry, looked up): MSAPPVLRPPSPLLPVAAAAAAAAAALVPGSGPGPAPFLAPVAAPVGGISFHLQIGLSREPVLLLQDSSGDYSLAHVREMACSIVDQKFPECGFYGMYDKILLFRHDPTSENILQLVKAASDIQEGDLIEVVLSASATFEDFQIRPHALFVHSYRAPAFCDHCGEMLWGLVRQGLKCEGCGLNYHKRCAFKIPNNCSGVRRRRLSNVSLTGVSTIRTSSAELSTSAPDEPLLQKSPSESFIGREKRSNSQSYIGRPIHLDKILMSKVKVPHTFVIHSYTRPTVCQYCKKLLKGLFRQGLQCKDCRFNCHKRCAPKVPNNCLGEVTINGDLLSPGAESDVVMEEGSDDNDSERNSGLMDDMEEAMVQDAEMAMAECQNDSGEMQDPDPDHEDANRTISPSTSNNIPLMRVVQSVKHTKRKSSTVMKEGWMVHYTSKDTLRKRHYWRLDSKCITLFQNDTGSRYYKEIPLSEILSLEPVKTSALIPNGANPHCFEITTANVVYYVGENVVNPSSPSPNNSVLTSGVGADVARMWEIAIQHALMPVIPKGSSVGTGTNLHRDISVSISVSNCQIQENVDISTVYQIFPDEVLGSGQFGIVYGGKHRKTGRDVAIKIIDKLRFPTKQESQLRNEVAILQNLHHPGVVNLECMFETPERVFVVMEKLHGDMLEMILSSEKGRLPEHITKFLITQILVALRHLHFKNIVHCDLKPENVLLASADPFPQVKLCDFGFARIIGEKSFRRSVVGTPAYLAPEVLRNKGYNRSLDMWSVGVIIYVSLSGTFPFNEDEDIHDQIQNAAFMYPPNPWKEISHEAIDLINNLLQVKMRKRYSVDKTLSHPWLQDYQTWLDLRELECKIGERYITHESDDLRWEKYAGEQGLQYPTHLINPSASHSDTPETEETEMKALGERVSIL
# GALR2 agonist: agonists of human galanin receptor 2 (GALR2); O43603; GALR2-expressing cells, agonist activation read-out; activation, %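 (tested at 5 µM)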; 140,000 tested, 0.48% active; AID 803;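 active = above mean plus 3 SD of all compounds, about 5% in these data, not always enough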;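 note: 0% = vehicle buffer wells and 100% = reference agonist at full effect; tested in CHO reporter cells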
# RGS16-Gao: RGS16-Galphao interaction regulator (human); binding response (% of control), % at 10 µM; O15492+P09471; bead-based flow cytometry RGS16-Galphao binding, fluorescence; actives lie on both sides; 220,000 tested, 0.38% active;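 active = below 25% or above 175%, edge rows of some plates excepted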;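 note: Galphao activated by GDP with aluminum fluoride before binding; 100% = wells without compound and 0% = beads without RGS; some results beyond the cut were filed as inactive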
# Insulin prom inh: TRM-6 insulin promoter activity inhibition; TRM-6 cells (human fetal islet line), insulin promoter-eGFP reporter, imaging; reporter expression induced with tamoxifen; inhibition, % at 2 µM; AID 1273; 130,000 tested, 0.9% active;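 active = inhibition above the mean plus 3 SD, with well images judged a real hit on visual review, cut at about 60% in these data, passing the limit was not always enough; inconclusive = inhibition over the cutoff but images rejected on review; inactive = inhibition not above the cutoff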
# Insulin prom inh cell count: also measured in Insulin prom inh; calls as there; normalized cell count, %; measured here: cell count, toxicity; reference of the scale not given here;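 cells exposed to compound for 48 h; stained nuclei by imaging scaled within each plate; lower means fewer cells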
# HSV replic up primary fold: recorded beside HSV replic up, whose call it bears; fold increase; compound at 10 µM; measured here: primary screen fold increase 10 uM; tested in PC3 cells;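 GFP signal in the first replicate; 1 = infected wells without compound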
# An asterisk follows results filed as active; i = inactive; ? = inconclusive; . = not tested or not shown.
canonical_smiles	HSV replic up	HSV replic up primary fold	PKD1 kinase inh	GALR2 agonist	RGS16-Gao	Insulin prom inh	Insulin prom inh cell count
C=CSc1sc(Cl)c(N(CC)CC)c1[N+](=O)[O-]	i	1.07	-1.2	.	96.6	.	.
COCc1cc(C)n(CC(=O)Nc2ccccc2OC)c(=O)c1C#N	i	1.04	8.1	-2.3	100.0	.	.
CCN(CC)C(=O)COc1ccc(-c2ccccc2)cc1	i	1.03	-5.8	-0.9	101.3	.	.
Cc1ccc2cc3c(N)c4c(C)ccc(C)c4nc3nc2c1	i	1.2	3.5	.	100.3	.	.
CN(C)CCNc1nc(-c2ccccc2)nnc1C(F)(F)F	i	0.91	1.2	-1.0	105.6	-5.9	110.9
Cc1cc(C(=O)Nc2sc3c(c2C#N)CCCC3)no1	i	0.9	-2.0	0.6	92.2	.	.
Cc1cc(=O)oc(C)c1C(=O)Nc1ccc2nsnc2c1	i	1.03	7.5	-2.4	110.5	.	.
COc1ccc(C(c2nnnn2CC2CCCO2)N2CCN(c3ccccc3)CC2)cc1 (centres undefined)	i	0.88	0.2	-1.8	100.0	9.7	109.9
O=[N+]([O-])c1cc(S(=O)(=O)N2CCCC2)ccc1N/N=C/c1cccs1	i	0.84	0.8	-0.5	101.2	-22.9	44.1
C=CCN1C=CC(=O)CC1	i	0.855	.	.	107.5	.	.
Cc1cc2ccccn2c1C(=O)Nc1ccccc1	i	1.03	0.5	.	102.7	.	.
CC(C)(C)NC(=O)C(c1ccco1)N(C(=O)Cn1nnc(-c2ccc(F)cc2)n1)c1cccc(F)c1 (centres undefined)	.	.	-3.8	-1.5	102.4	.	.
O=C(NN1C(=O)C2C3c4ccccc4C(c4ccccc43)[C@@H]2C1=O)c1ccccc1 (some centres undefined)	i	1.11	-7.6	-1.2	110.1	.	.
Cc1ccc2c(CN3CCN(S(=O)(=O)c4ccc5c(c4)OCCO5)CC3)cc(=O)oc2c1C	i	1.08	0.4	-2.6	101.2	.	.
CN(C(=O)c1ccno1)c1nnc(-c2cnccn2)s1	i	1.02	-23.8	-0.9	114.3	-16.1	94.2
Cn1cc(Cl)c(C(=O)Nc2nc3ccc([N+](=O)[O-])cc3s2)n1	i	1.13	-0.4	.	101.9	.	.
Cc1cc(C)n2c(=O)c3ccc(Cl)cc3nc2c1C#N	i	0.94	0.3	.	96.4	-82.9	82.8
COc1ccc(NC(=O)c2ccc3nc(-c4ccccc4)c(-c4ccccc4)nc3c2)c(OC)c1	i	1.01	-2.7	-0.1	107.7	.	.
CC(C)(C)C(=O)NC(=S)Nc1ccccc1N1CCCC1	i	1.06	-1.7	.	86.0	.	.
O=C(CCCc1ccccc1)NCc1cccnc1	i	1.03	-2.0	-0.8	102.7	.	.
CCSc1nnc(NC(=O)CSc2nnc(CNC(=O)c3cc(OC)c(OC)c(OC)c3)o2)s1	i	1.11	-5.7	0.0	103.5	.	.
O=C1CSC(c2cccc([N+](=O)[O-])c2)N1c1ccccc1F (centres undefined)	i	0.92	-5.1	.	93.9	.	.
O=C(OC1CCCCC1)c1ccc(NC(=O)c2ccco2)cc1	i	0.96	-7.3	-3.2	71.7	-48.4	108.4
CCCc1cc(=O)oc2c3c(c4c(c12)OC(C)(C)C=C4)OC(C)C(C)C3O (centres undefined)	i	0.915	.	.	-5.8*	.	.
O=c1[nH]c(N2CCCCC2)nc2c1CCCC2	i	0.94	-5.8	-0.9	99.2	28.4	110.0
Cc1ccc(CSc2nnc(SCC(=O)N/N=C/C=C/c3ccco3)s2)cc1	.	.	7.0	0.6	104.0	.	.
CCOC(=O)c1sc2nccc(OC)c2c1N=CNOC	i	0.96	-2.3	.	99.1	.	.
Cc1cc(C)c(S(=O)(=O)NC(C)C)c(C)c1-n1cnnn1	i	1.07	-1.9	.	104.2	.	.
COc1cccc(CNc2nc3nc4c(c(=O)n3[nH]2)CCC4)c1	i	1.09	-11.1	-1.9	104.3	-23.3	114.7
O=S(=O)(c1ccc(F)cc1)N1CCC(O)(c2ccc3c(c2)OCO3)CC1	i	0.89	-4.8	-0.1	103.2	0.0	115.0
O=C(NC1CCCC1)C(c1ccc(Cl)cc1)N1CCN(C2CCCCC2)CC1 (centres undefined)	i	0.89	.	.	103.4	.	.
COCc1cc(=O)[nH]c2cc(NC(=O)C(C)(C)CCl)c(C)cc12	i	0.9	-6.2	-2.6	105.4	-86.7	118.1
Cc1ccc(-n2c(C)cc(/C=c3/sc4nc5ccccc5n4c3=O)c2C)cc1	i	1.05	-0.5	-1.5	100.3	12.9	67.7
COc1ccc2c(CC(=O)OCC(=O)NC(=O)c3cccn3C)coc2c1	i	0.88	-5.5	-2.8	98.2	41.9	105.0
O=C(COc1cccnc1[N+](=O)[O-])NCCc1ccccc1	i	1.1	2.0	.	100.1	-35.1	99.2
Fc1ccccc1NC(=S)N1CCCCC1	i	1.09	2.0	-0.4	104.5	-41.9	122.4
CCOc1cc(/C=N/N=C2/NC(=O)C(CC(=O)O)S2)ccc1OCc1ccc(Cl)cc1Cl (centres undefined)	i	0.95	-9.5	.	99.7	.	.
CC(=O)NC1(c2ccc(F)cc2)CCN(C(=O)c2c(F)cccc2F)CC1	i	0.95	-4.6	.	100.5	-10.0	112.9
COc1ccc(-c2cc(C(=O)NCC3CCCO3)c3ccccc3n2)cc1 (centres undefined)	i	0.95	-8.4	.	98.5	.	.
CC(=O)/C(C#N)=C1\NC(=O)C(Cc2ccc(F)cc2)S1 (centres undefined)	?	.	.	.	92.9	.	.

# With a hit mark in RGS16-Gao, of those listed so far:
Structure	HSV replic up	HSV replic up primary fold	PKD1 kinase inh	GALR2 agonist	RGS16-Gao
CCCc1cc(=O)oc2c3c(c4c(c12)OC(C)(C)C=C4)OC(C)C(C)C3O (centres undefined)	i	0.915	.	.	-5.8*

# New compounds follow.
canonical_smiles	HSV replic up	HSV replic up primary fold	PKD1 kinase inh	GALR2 agonist	RGS16-Gao	Insulin prom inh	Insulin prom inh cell count
Cc1ccc(/C=N\NC(=O)CCc2n[nH]c(=O)[nH]c2=O)o1	i	0.88	-2.2	.	103.7	23.5	76.7
Cc1cc(C(=O)COC(=O)CN(C)S(=O)(=O)c2ccc(Cl)cc2)c(C)n1CC1CCCO1 (centres undefined)	i	1.03	-5.5	0.3	115.3	-28.6	140.3
CCC(CC)NC(=O)COC(=O)c1cc(SC)ccc1Cl	i	0.97	-1.1	.	98.1	.	.
CCOC(=O)C(NC(=O)c1cccc(Cl)c1)(Nc1nnc(C)s1)C(F)(F)F (centres undefined)	i	0.94	-10.9	-1.3	102.6	7.1	102.2
CCCCOc1ccc(S(=O)(=O)NC(=O)NCc2ccc(OCCC)cc2)cc1	i	0.85	-1.4	-1.0	108.6	65.7	79.0
Cc1cc(=O)oc2c(C)c(OCC(=O)N(C)C)ccc12	i	0.93	-5.5	-1.6	113.3	-58.1	122.9
O=C(Nc1nnc(CSCc2ccc(Cl)cc2)s1)c1cccc([N+](=O)[O-])c1	i	1.13	-7.2	-0.4	98.8	.	.
CCCCOC(=O)C(NC(=O)c1ccccc1)=C(C)C	i	0.88	4.9	-0.6	-33.0*	13.8	119.8
CCN1CCc2c(sc3c2c(NCc2ccco2)nc2nnnn23)C1	i	0.99	-1.9	-1.1	99.1	.	.
Cc1ccc2nc(-c3ccc(S(=O)(=O)N4CCOCC4)cc3)cn2c1	i	0.97	-5.8	-1.8	106.8	-20.0	68.2
O=C(Nc1ccncc1NC(=O)c1cccc([N+](=O)[O-])c1)c1cccc([N+](=O)[O-])c1	i	0.76	-9.1	.	99.9	.	.
Cc1ccc(C(=O)NCCCN2CCOCC2)cc1N1CCCC1=O	i	0.98	-6.7	-1.6	99.8	-53.3	134.0
CC(OC(=O)c1ccc2c(c1)C(=O)N(Cc1ccncc1)C2=O)C(=O)Nc1cccc(Cl)c1Cl (centres undefined)	i	1.03	5.4	-2.1	113.2	.	.
CC(C)(C)Nc1nc(Cl)nc(NC(C)(C)C)n1	i	0.96	-11.9	1.0	102.3	-6.9	154.7
CC1(C)CC2(CC(c3ccc(F)cc3)c3ccc(O)cc3O2)NC(=S)N1 (centres undefined)	i	0.95	.	.	97.7	.	.
COc1ccc(S(C)(=O)=O)cc1S(C)(=O)=O	i	1.01	-13.0	-3.7	101.2	-236.0	77.8
COc1ccccc1N=C1SCC(=O)N1Cc1ccco1	i	0.96	.	.	97.8	.	.
O=C(Nc1cnc2ccccc2c1)c1ccco1	i	0.823	8.0	-1.0	104.0	-54.5	56.9
OC(CN1CCN(c2ccccc2)CC1)c1ccc2c(c1)CCN2 (centres undefined)	i	0.91	-0.7	-1.3	102.1	.	.
CC(C)OCCCNC(=O)c1sc(=S)n(C)c1N	i	0.93	-5.7	-0.8	106.7	53.9	156.2

# Compound profiles, from the list above. Order of values: HSV replic up | HSV replic up primary fold | PKD1 kinase inh | GALR2 agonist | RGS16-Gao | Insulin prom inh | Insulin prom inh cell count
# `CC(C)(C)Nc1nc(Cl)nc(NC(C)(C)C)n1` is entered as i | 0.96 | -11.9 | 1.0 | 102.3 | -6.9 | 154.7
# `CC(C)OCCCNC(=O)c1sc(=S)n(C)c1N` is entered as i | 0.93 | -5.7 | -0.8 | 106.7 | 53.9 | 156.2
# `CCC(CC)NC(=O)COC(=O)c1cc(SC)ccc1Cl` is entered as i | 0.97 | -1.1 | . | 98.1 | . | .
# `CCN1CCc2c(sc3c2c(NCc2ccco2)nc2nnnn23)C1` is entered as i | 0.99 | -1.9 | -1.1 | 99.1 | . | .

# Returning to the listing, starting 2 compounds before the break.
canonical_smiles	HSV replic up	HSV replic up primary fold	PKD1 kinase inh	GALR2 agonist	RGS16-Gao	Insulin prom inh	Insulin prom inh cell count
OC(CN1CCN(c2ccccc2)CC1)c1ccc2c(c1)CCN2 (centres undefined)	i	0.91	-0.7	-1.3	102.1	.	.
CC(C)OCCCNC(=O)c1sc(=S)n(C)c1N	i	0.93	-5.7	-0.8	106.7	53.9	156.2
COc1ccccc1NC(=O)C(=O)NNC(=O)c1ccco1	i	0.97	-1.6	-1.4	99.5	-45.8	132.2
COc1cccc(OC)c1C(=O)NC(=S)NCc1ccco1	i	1.04	-0.8	.	106.0	0.0	77.7
Cc1ccc(-c2nnc(N3CCN(S(C)(=O)=O)CC3)c3ccccc23)cc1	i	1.05	-17.5	2.4	101.4	52.6	38.9
O=C(CSc1nc(-c2ccc(Cl)cc2)[nH]c(=O)n1)Nc1cccc(Cl)c1	i	0.87	.	.	101.2	.	.
COc1ccc(NC(=O)CSc2nnc(CNc3ccc(C)cc3)n2C)cc1	i	0.94	-9.4	.	105.4	.	.
CC(=O)N1CCC(N(C(=O)Nc2ccc(C)c(C)c2)C2CCCC2)CC1	i	0.95	-12.0	-2.6	105.7	11.1	82.9
CC1CCCC(NC(=O)COC(=O)Cc2c[nH]c3ccccc23)C1C (centres undefined)	i	1.06	3.3	.	107.0	-61.9	71.0
N#Cc1ccc(C(=O)Nc2ccn(-c3ccccc3)n2)cc1	i	1.09	5.9	-1.4	104.9	-25.8	123.8
COC(=O)C1CCN(C(=O)/C=C/c2ccccc2)CC1	.	.	-14.7	0.7	102.1	-8.3	141.7
CC(=O)c1cc(C#N)c(NCCCN(C)C)nc1C	i	0.9	-5.9	.	97.7	.	.
Cc1ccccc1/C=N/Nc1ccnc2cc(Cl)ccc12	i	0.57	-5.3	1.8	106.5	80.0*	199.4*
COc1cccc(NC(=O)C(Sc2nnnn2C)c2ccccc2)c1 (centres undefined)	i	1.03	9.1	.	99.0	.	.

# Nothing new here: 2 of the compounds above.
canonical_smiles	HSV replic up	HSV replic up primary fold	PKD1 kinase inh	GALR2 agonist	RGS16-Gao	Insulin prom inh	Insulin prom inh cell count
CC(=O)c1cc(C#N)c(NCCCN(C)C)nc1C	i	0.9	-5.9	.	97.7	.	.
Cc1ccccc1/C=N/Nc1ccnc2cc(Cl)ccc12	i	0.57	-5.3	1.8	106.5	80.0*	199.4*
